# Assay outcomes: PubChem, several laboratories
# FGF22 binding = shifts melting point of recombinant human FGF22. Q9HCT0. recombinant FGF22 thermal shift, SYPRO orange fluorescence; percent of sucrose octasulfate shift, DMSO zero. calls only at 9.99 µM. 340,000 tested, 1.5% active;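 active = melting point raised past a set limit in the mean and every replicate; inconclusive = no clear call; three in four hits are not shown here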
# Target sequence (Q9HCT0 whole entry, looked up): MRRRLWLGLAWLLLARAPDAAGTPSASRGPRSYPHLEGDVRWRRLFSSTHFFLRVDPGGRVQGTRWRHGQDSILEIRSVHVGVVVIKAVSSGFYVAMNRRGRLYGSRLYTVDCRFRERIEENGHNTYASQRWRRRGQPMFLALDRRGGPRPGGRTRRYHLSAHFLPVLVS
# T cruzi inh = blocks replication of Trypanosoma cruzi; T. cruzi beta-gal in NIH3T3, luminescence, 90 h; inhibition, % (test concentration not listed); 300,000 tested, 1.4% active; AID 1885;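 active = mean inhibition across valid replicates above about 55%, limit read from the data; inconclusive = mean below that limit but half or more replicates reach it; inactive = mean below it, under half of replicates reach it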;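 note: signal also drops with host cell toxicity which is not excluded here; 0% = plate median of DMSO wells and 100% = zero luminescence signal; higher percent means less beta-gal luminescence so fewer parasites; stock transfer was 50 nL into about 50 µL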
# Ecoli growth = blocks Escherichia coli growth; OD600, 23 h; hits give low values; OD600 absorbance (concentration not given with the values); 330,000 tested, 0.21% active; AID 1053175;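 active = OD600 absorbance below the run mean of sample wells minus 3.6 SD, in any replicate, cut at about 0.56 in these data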;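 note: stock transfer was 300 nL into about 60 µL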
# rRNA inh HTS = inhibitors of bacterial rRNA selective over humanized ribosomes. E. coli WT GFP vs humanized-ribosome RFP mutants, fluorescence, 24 h; hits give low values; DMSO median 0, no signal -100. GFP signal change (wild-type ribosome), % (test concentration not listed). 350,000 tested, 1.6% active;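 active = significant combined selectivity score with lowered wild-type GFP, culture density cut under 30%, mutant RFP and density less affected; inactive = any of these conditions unmet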; note: one replicate is shown; some compounds called inactive have numbers as strong as hits
# Beta apoptosis = beta cell apoptosis inhibition; INS-1E cytokine-induced death, ATP luminescence, 48 h; percent of positive-control rescue, neutral wells zero; protection from apoptosis, % (concentration not given with the values); 300,000 tested, 0.8% active; AID 435005;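 active = all replicates at 75% or more, or half of them and the mean; inconclusive = half reach 75% but not the mean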;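 note: 0% = cytokine-treated negative control wells and 100% = positive control rescue; higher means more ATP so stronger rescue from cytokine killing; wells of about 40 µL received 100 nL stock; the first replicate is given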
# MLL AF4-AF9 inh = inhibitors of human MLL-AF4/AF9 interaction; P42568; AlphaScreen, biotin-AF4 peptide binding to FLAG-AF9; inhibition, % at 10 µM; 350,000 tested, 0.47% active;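 active = every replicate reaching a set inhibition limit, whatever the replicate mean, cut at about 25% in these data; inconclusive = mean inhibition reaches that limit but some replicates miss it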;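 note: 0% = plate neutral control median and 100% = total signal loss; the record names both 10 and 1 µM as test concentration; the first replicate is given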
# Target sequence (P42568 whole entry, looked up): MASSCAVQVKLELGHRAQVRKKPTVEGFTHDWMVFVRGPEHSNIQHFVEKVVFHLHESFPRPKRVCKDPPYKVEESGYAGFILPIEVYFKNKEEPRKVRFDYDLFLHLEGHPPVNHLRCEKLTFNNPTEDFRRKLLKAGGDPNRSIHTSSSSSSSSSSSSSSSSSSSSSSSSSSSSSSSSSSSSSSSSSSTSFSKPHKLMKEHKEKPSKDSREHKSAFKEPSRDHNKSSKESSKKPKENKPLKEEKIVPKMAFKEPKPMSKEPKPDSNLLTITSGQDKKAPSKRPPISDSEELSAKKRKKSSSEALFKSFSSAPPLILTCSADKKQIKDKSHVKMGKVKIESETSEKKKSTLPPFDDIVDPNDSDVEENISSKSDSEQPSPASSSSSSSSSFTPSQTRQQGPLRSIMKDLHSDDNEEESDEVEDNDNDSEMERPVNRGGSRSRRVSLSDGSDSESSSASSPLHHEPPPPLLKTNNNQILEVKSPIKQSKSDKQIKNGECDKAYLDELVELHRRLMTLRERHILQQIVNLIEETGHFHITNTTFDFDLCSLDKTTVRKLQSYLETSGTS
# UCH37 inh = human UCH37 deubiquitinating enzyme inhibition | inhibition, % (test concentration not listed) | purified proteasome/UCH37, Ub-AMC cleavage fluorescence | 330,000 tested, 0.33% active;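 active = mean of two replicates above 20%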;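 note: 0% = compound-free wells with enzyme and 100% = wells lacking proteasome; stock transfer was 100 nL into about 20 µL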
# Target sequence (Q9Y5K5 whole entry, looked up): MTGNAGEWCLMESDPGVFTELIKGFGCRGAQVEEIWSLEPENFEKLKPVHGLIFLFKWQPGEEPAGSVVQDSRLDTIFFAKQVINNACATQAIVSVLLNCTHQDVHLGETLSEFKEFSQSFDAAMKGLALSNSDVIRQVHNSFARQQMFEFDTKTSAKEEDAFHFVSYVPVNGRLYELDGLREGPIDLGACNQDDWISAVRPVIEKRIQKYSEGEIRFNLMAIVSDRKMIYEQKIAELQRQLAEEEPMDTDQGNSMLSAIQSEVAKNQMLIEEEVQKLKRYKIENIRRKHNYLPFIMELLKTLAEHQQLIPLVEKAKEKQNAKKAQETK
#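 Material: human UCH37 enzyme supplied as purified proteasome complex / Amount: 0.15 nM proteasome as dispensed / Buffer or medium: pH 7.4 Tris-HCl (50 mM) with ovalbumin, ATP-MgCl2, DTT / Times: preincubation 30 min, reaction 25 min, room temperature / Technique: AMC fluorescence from Ub-AMC cleavage, excitation 355 nm, emission 460 nm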
# A1 inh = inhibitors of the anti-apoptotic protein A1, read as caspase activation | caspase activation, % (no concentration beside the values) | MEF A1-2A-BIM cells, Caspase-Glo 3/7 luminescence, 3 h; percent of clofoctol response, vehicle zero | 330,000 tested, 0.066% active | AID 2462;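 active = over half of replicate activation scores above 10%, or exactly half above 10 with the replicate mean above 10; inconclusive = replicate mean below 10 yet half the replicates above 10; inactive = over half of replicates below 10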;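 note: wells of about 30 µL received 50 nL stock; many hits fall short of the cut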
# rRNA inh HTS OD600 = recorded beside rRNA inh HTS, whose call it bears; OD600 change, %; measured here: OD600 growth;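 optical density of the mix in the first replicate; 0 = DMSO median and -100 = no signal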
# rRNA inh HTS RFP = also measured in rRNA inh HTS; calls as there; RFP signal change, %; measured here: RFP humanized mutant strains;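 first replicate; 0 = DMSO median and -100 = no signal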
# Active calls of the source: *; i = inactive; ? = inconclusive; nt = no result given. Only part of the results is shown (hit frequency here may not be typical).
No.	SMILES	FGF22 binding	T cruzi inh	Ecoli growth	rRNA inh HTS	rRNA inh HTS OD600	rRNA inh HTS RFP	Beta apoptosis	MLL AF4-AF9 inh	UCH37 inh	A1 inh
1	CC(C)OP(=O)(OC(C)C)/C(C=O)=N\Nc1ccc([N+](=O)[O-])cc1	nt	-4	nt	-5	0	1.7	7	2.7	nt	0.3
2	CC(=O)N1CCN(C(=O)c2ccc(-n3c(C)ccc3C)cc2)CC1	nt	3	0.71	nt	nt	nt	-17	nt	-0.6	1.5
3	O=C(CN1C(=O)C2CC=CCC2C1=O)Nc1nnc(SCc2c(Cl)cccc2Cl)s1 (centres undefined)	nt	8	0.75	nt	nt	nt	-5	nt	2.8	0.4
4	CC(=O)c1cn(CCOc2ccc(F)cc2)c2ccccc12	i	2	0.66	-12	-13	-2.7	17	-0.1	1.0	-0.2
5	CCCCC1CCC(C(=O)OC(C)C(=O)Nc2ccc(NC(C)=O)cc2)CC1 (centres undefined)	i	3	0.67	-5	-9	-0.8	2	1.0	3.0	-1.1
6	COc1ccc(O)c(C(=O)c2cnn(-c3ccc(Cl)cc3)c2)c1	i	-9	0.68	9	16	0.7	1	-0.8	1.6	-1.1
7	CCc1nc(-c2cc3ccc(C)cc3[nH]c2=O)no1	nt	19	0.67	nt	nt	nt	-2	nt	-124	-0.2
8	COc1ccc(COC(=O)C2=C(C)NC(=O)NC2c2cccc(OC)c2OC)cc1 (centres undefined)	i	-5	0.64	1	-4	1.3	-1	4.2	0.6	-0.5
9	CC(C)(C)c1cc(Cc2ccccc2)[nH]n1	nt	33	0.71	nt	nt	nt	-9	nt	3.9	0.8
10	CCCC(=O)N1CCN(c2ccc(NC(=S)NC(=O)c3cccc(C)c3)cc2)CC1	i	-1	0.71	-20*	5.8*	-0.1*	0	4.5	1.8	-0.6
11	CCCCCOC(=O)Cc1c(C)nc(-c2ccccc2)[nH]c1=O	nt	-7	0.76	nt	nt	nt	-2	nt	3.1	-0.3
12	COc1cccc(C(=O)NCC(=O)OCc2ccc(F)cc2Cl)c1	i	-7	0.66	-4	3	0.5	-3	0.3	0.4	0.3
13	COC(=O)c1ccc(/C=N/N2C(C)CCCC2C)cc1 (centres undefined)	i	-6	nt	14	8	-0.4	-5	0.6	nt	-1.6
14	Cc1ccc(NC(=O)CC2SC3=NCCN3C2=O)cc1 (centres undefined)	nt	-16	0.68	nt	nt	nt	-7	nt	4.0	0.1
15	COc1ccccc1C(=O)Nc1cccc2nc(C)ccc12	i	1	0.68	-7	-10	11	3	-1.5	3.4	0.5
16	COc1cc(/C=N/NC(=O)c2ccc(Cn3cc([N+](=O)[O-])cn3)o2)cc(Br)c1O	i	2	nt	-8	3	0.9	6	1.6	nt	0.1
17	CCOC(=O)c1c(CN2CCC(C)CC2)n(C)c2cc(Br)c(OC)cc12	i	24	0.72	nt	nt	nt	-4	1.8	6.3	0.8
18	COCc1c(Br)c(C)nc(OCC(=O)N/N=C/c2cc(C)n(-c3ccc([N+](=O)[O-])cc3)c2C)c1C#N	i	63*	nt	6	6	0.3	-4	3.1	nt	0.1
19	COC(=O)c1ccccc1Oc1cnc2ccccc2n1	i	-3	0.66	4	2	1.2	0	-2.0	2.4	0.9
20	CCOC(=O)C1CCN(C(=O)C2CC(=O)N(c3ccc(C)cc3)C2)CC1 (centres undefined)	i	19	0.64	2	4	-6.8	nt	6.3	0.9	0.0
21	CCOc1ccc2c(c1)cc(CN(C(=O)CC)C1CCCCC1)c1nnnn12	nt	8	0.71	nt	nt	nt	nt	nt	-0.9	?
22	O=C(Nc1ccc2c(c1)OCO2)N1CCOCC1	nt	-18	0.74	6	4	-2.0	-3	nt	1.4	-0.5
23	CN(c1ccccc1)S(=O)(=O)c1cccc(NC(=O)C2CC(=O)N(Cc3ccccc3)C2)c1 (centres undefined)	i	-6	0.68	-37	-47	0.5	-5	6.7	5.4	-0.1
24	O=C(CSc1nc2c(oc3ccccc32)c(=O)n1CC1CCCO1)NCc1ccc(F)cc1 (centres undefined)	i	12	0.68	6	11	-2.8	nt	-1.0	2.4	nt
25	COc1ccc(OC)c(S(=O)(=O)N2CCCC(C(=O)NCc3ccco3)C2)c1 (centres undefined)	nt	15	0.71	2	12	-1.0	-6	1.9	0.6	-0.6
26	COC(=O)C(CCSC)NC(=O)CNS(=O)(=O)c1ccc(Br)cc1 (centres undefined)	nt	-6	0.72	nt	nt	nt	-3	nt	3.3	-0.2
27	CCOC(=O)C(=O)Nc1nc(-c2ccccc2)c(-c2ccccc2)o1	i	8	0.69	nt	nt	nt	3	-12	1.8	0.4
28	CC(C)CCC1(CCNC(=O)c2cccs2)CCOC(C)(C)C1 (centres undefined)	i	6	0.71	-23	-37	-0.3	nt	-0.2	7.5	0.4
29	CC(OC(=O)C1CCN(S(=O)(=O)c2ccc(C(C)(C)C)cc2)CC1)C(=O)N(C)C1CCCCC1 (centres undefined)	i	nt	0.64	7	4	0.1	nt	2.3	3.8	nt
30	COc1ccc(NC(=O)c2cccc(N3C(=O)C4CC=C(C)CC4C3=O)c2)c(OC)c1 (centres undefined)	i	-5	0.67	-5	2	1.8	-3	-1.2	-0.1	0.1
31	COc1ccc(N2CCN(C(=O)c3ccc(S(=O)(=O)N4CCOCC4)cc3)CC2)cc1	nt	-3	0.68	nt	nt	nt	-2	nt	2.9	1.2
32	Cc1cccnc1NC(=O)CSc1ccc2c(c1)OCCO2	i	nt	0.65	10	13	-1.6	-6	-7.6	-0.6	0.5
33	COc1ccc(N2CCN(Cc3cc(=O)oc4cc(-c5ccccc5)c(O)cc34)CC2)cc1	nt	-4	0.77	nt	nt	nt	34	nt	5.0	-0.6
34	COCCN(C(=O)COC(=O)CC(C)c1ccccc1)c1c(N)n(Cc2ccccc2)c(=O)[nH]c1=O (centres undefined)	i	-11	0.64	12	16	0.8	-2	-1.0	4.8	0.6
35	O=C(Nn1cnc2ccccc2c1=O)c1ccc(F)cc1Cl	i	-34	0.7	6	12	-0.4	-6	-13	4.8	0.2
36	CCc1ccc(N2C(=O)Cc3c2nc(N)c(C#N)c3N)cc1	i	-12	0.64	-32	-15	-17	-3	11	-3.4	1.7
37	CC1(C)C[C@@H](O)CC2(C1)C[C@]1(C)CC(O)[C@H]2C(C)(C)C1 (some centres undefined)	i	0	0.66	3	-3	-0.3	nt	1.0	1.6	0.0
38	Cc1ccc(SCC(=O)OC(C)C(=O)NC2(C#N)CCCCC2)cc1 (centres undefined)	i	-18	0.63	6	2	-0.7	-4	-0.6	1.4	0.5
39	Cn1nc(C(F)(F)F)c(C#N)c1N1CCN(c2ccc(F)cc2)CC1	nt	-24	0.71	nt	nt	nt	-5	nt	5.1	0.4
40	CCOc1ccccc1N(CC(=O)NC1CCCC1)C(=O)CCCC(=O)Nc1ccccn1	nt	5	0.75	nt	nt	nt	0	nt	2.1	0.1
41	N#CCCN(C(=O)COC(=O)C1CCN(S(=O)(=O)c2ccc3c(c2)OCCO3)CC1)c1ccccc1	i	3	0.73	-21	-37	1.2	-3	3.6	-1.2	-0.1
42	CCOC(=O)C1CCN(C(=O)c2cc(OCC)c(OCC)c(OCC)c2)CC1	nt	-11	0.74	nt	nt	nt	-5	nt	2.0	0.0
43	CCOC(=O)C1CCCN(C(=O)Nc2c(-c3ccccc3)noc2C)C1 (centres undefined)	i	-18	0.7	-11	-4	-1.1	2	0.2	7.2	0.3
44	N#CCC(=O)N/N=C/c1coc2ccccc2c1=O	i	17	nt	10	6	3.0	-4	0.4	nt	0.5
45	Cc1nnc(SCC(=O)N(CC(C)C)c2c(N)n(CC(C)C)c(=O)[nH]c2=O)n1-c1ccccc1	i	-7	0.68	-2	3	3.4	-2	-0.8	4.4	0.8
46	O=C(NCc1ccccn1)C1Nc2ccc(C(F)(F)F)cc2C2C=CCC12 (centres undefined)	i	-5	nt	3	4	1.3	0	-0.7	nt	-0.2
47	COc1ccc(N2CC(C)Cn3c2nc2c3c(=O)n(Cc3ccccc3)c(=O)n2C)c(OC)c1 (centres undefined)	i	16	0.66	-2	-1	2.1	1	?	2.1	0.8
48	C=CCOC(=O)C1=C(C)NC(C)=C(C(=O)OCC=C)C1/C=C/c1ccccc1	nt	13	0.74	nt	nt	nt	-3	nt	-81	-0.8
49	CCCCCCC#Cc1ccc2c(c1)COc1c3ccccc3nn1-2	i	-1	0.67	-10	-15	9.2	8	15	5.6	-0.9
50	N#Cc1cc(C(=O)c2ccccc2O)cn(-c2nccs2)c1=O	nt	-6	0.66	nt	nt	nt	-3	nt	2.2	0.2

# The results go on.
No.	SMILES	FGF22 binding	T cruzi inh	Ecoli growth	rRNA inh HTS	rRNA inh HTS OD600	rRNA inh HTS RFP	Beta apoptosis	MLL AF4-AF9 inh	UCH37 inh	A1 inh
51	CNc1ccc(OC)cc1-n1cnc(-c2ccc([N+](=O)[O-])cc2)c1	i	-2	0.72	6	1	2.8	nt	1.5	5.6	-0.1
52	CN(C)S(=O)(=O)c1cccc(C(=O)OCC(=O)Nc2ccc3c(c2)OCCO3)c1	i	nt	0.66	4	1	1.9	-5	4.3	-0.1	-0.6
53	CCCCCN(C(=O)CCC(=O)OCc1cccc(F)c1)c1c(N)n(CCCC)c(=O)[nH]c1=O	nt	-3	0.65	4	10	-0.4	-4	0.4	4.0	0.3
54	COc1cc(/C=C/C(=O)OCC(=O)NCc2ccc3c(c2)OCO3)cc(OC)c1OC	i	nt	0.72	1	4	0.7	-2	-3.0	-40	-1.3
55	Cn1nnc(NCc2cc(Br)ccc2OCc2cccs2)n1	nt	10	0.7	nt	nt	nt	-1	nt	1.0	0.3
56	COc1cccc(/C=N/NC(=O)c2cc3c(OC)ccc(OC)c3[nH]2)c1O	i	7	nt	-16	-9	-4.2	86*	-5.1	nt	2.1
57	Cc1cc(C)cc(-n2ncc3c2CCCC3NC(=O)c2cc(C)[nH]n2)c1 (centres undefined)	i	36	0.7	-15	-22	-3.0	3	0.6	2.8	-0.8
58	CC(=O)N1CCc2cc(S(=O)(=O)CCC(=O)O)ccc21	nt	-18	0.76	nt	nt	nt	nt	nt	3.7	0.0
59	COC(=O)c1ccc(-n2c(C)cc(C(=O)CSc3ccc(NC(C)=O)cc3)c2C)cc1	nt	-1	0.71	nt	nt	nt	nt	nt	4.1	1.5
60	O=C1CN(C(=O)c2c(F)cccc2F)C(c2ccc(F)cc2)c2cc(F)ccc2N1 (centres undefined)	i	6	0.68	-8	-16	-0.2	2	4.6	1.1	0.8
61	C=CCN1CCN(C(=O)c2oc3ccccc3c2C)CC1	i	-10	0.61	0	-2	1.5	6	1.2	6.1	0.8
62	CC(NC(=O)CCC1COc2ccccc2O1)c1ccccc1 (centres undefined)	nt	5	0.65	nt	nt	nt	-5	nt	2.8	0.0
